Rango complex inh – Rango-importin beta binding inhibition. Q14974. Rango CFP/YFP FRET sensor + importin beta, 45 min. Potency, µM (series often up to 92.2 µM), inactives show top-dose inhibition of complex formation. 340,000 tested, 0.031% active. AID 540263; active = rising FRET ratio curve, often small or poorly fitted; inconclusive = mostly compound fluorescence or quenching in the first reads; inactive = flat curves in all reads;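 further: potency means the concentration at half of the fitted maximal effect; 0% = DMSO wells and 100% = buffer wells lacking importin beta; nearly all actives have a fitted effect of over 15% in size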
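Inhibition scored from the CFP 486 nm/YFP 530 nm FRET ratio 45 min after adding 0.125 microM importin beta to 50 nM Rango biosensor preincubated 5 min with compound (room temperature, PBS with DTT, Tween-20, BSA). No-importin wells as positive control.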
Rango dissoc inh – prevents RanGTP from dissociating the Rango-importin beta complex; O95149+P62826; Biochemical FRET Rango-importin beta, RanGTP-induced dissociation; Potency, µM (highest dose often 46.1 µM), for the others: at the highest dose activity change, negative = inhibition; 340,000 tested, 0.071% active; AID 540253; active means falling FRET ratio curve, often poorly fitted, with flat reads before Ran was added; inconclusive means other falling curves, or compound fluorescence or quenching; inactive means flat or rising ratio curve;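 further: potency means the concentration at half of the fitted maximal effect; % of control where 0% means no effect; nearly all actives have a fitted effect of over 45% in size; -100% = wells without RanGTP and RCC1; the record marks most hits as doubtful in a second field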
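Compounds sat 5 min at room temperature with 0.1 uM Rango biosensor plus 0.25 uM importin beta, then FRET pre-read. RanGTP-RCC1 (0.6 uM Ran, 2mM GTP, 0.2 uM RCC1) added for 45 min, and the CFP/YFP post-read measured blocked complex dissociation.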
miR-21 FLuc – miR-21 reporter, rising signal; HeLa miR-21 FLuc reporter, luciferase, 48 h; Potency, µM (top dose mostly 38.3 µM), without a hit: at the highest dose reporter change, positive = more light; 340,000 tested, under 10 active; active = well fitted rising curve with a large enough effect; inconclusive = small, poorly fitted or top-dose-only effect; inactive = no such curve, though single readings can be large or run the other way;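 further: % of control where 0% means no effect; miR-21 action dims this reporter so a rising signal means less miR-21 action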
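Compounds were titrated across several concentrations (up to approximately 40 uM) and incubated 48 hours with HeLa miR-21-FLuc reporter cells (miR-21 target sequence downstream of FLuc, endogenous miR-21). Readout was firefly luciferase luminescence after lytic detection reagent.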
GLA inh pH 4.5 – blocks human alpha-galactosidase A at pH 4.5. 230,000 tested, under 10 active. AID 1467. purified enzyme, 4-MU-alpha-Gal fluorescence, pH 4.5. activity change, negative = inhibition, % at 105 µM; inconclusive = small, poorly fitted or top-dose-only inhibition, or a rising curve; inactive = flat fitted curve, though single readings scatter; no compound was filed as active;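 further: 0% = full activity with enzyme and -100% = basal without enzyme; dose as in the result columns while the protocol names 77 µM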
Target sequence (P06280 whole entry, looked up): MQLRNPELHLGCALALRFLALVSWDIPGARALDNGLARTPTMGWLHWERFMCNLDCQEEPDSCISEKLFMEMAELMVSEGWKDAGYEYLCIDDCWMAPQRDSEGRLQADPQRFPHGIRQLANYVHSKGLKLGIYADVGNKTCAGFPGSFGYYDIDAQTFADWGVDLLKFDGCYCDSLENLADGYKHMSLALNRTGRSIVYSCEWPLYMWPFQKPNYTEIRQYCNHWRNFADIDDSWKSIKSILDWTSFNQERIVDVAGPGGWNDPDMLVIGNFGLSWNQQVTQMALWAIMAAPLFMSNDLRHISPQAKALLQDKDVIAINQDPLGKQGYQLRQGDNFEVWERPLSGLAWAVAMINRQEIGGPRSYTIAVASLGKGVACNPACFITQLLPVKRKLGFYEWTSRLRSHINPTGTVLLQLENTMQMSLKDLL
* = called active by the depositor; ? = inconclusive; / = not tested or not shown. Some of the compounds tested; rates above refer to the full screens.

compound	Rango dissoc inh	GLA inh pH 4.5	Rango complex inh	miR-21 FLuc
CC(=O)OCCCNc1cc(Sc2nc3ccccc3s2)c2nonc2c1[N+](=O)[O-]	7%	-5	-3.9%	-7%
O=C(Nc1ccccc1)C1CC(=O)N(Cc2ccccc2)C1 (centres undefined)	2%	/	-0.2%	-2%
COc1ccccc1NC(=O)Cn1c(=O)n(-c2ccccc2)c(=O)c2oc3ccccc3c21	-15%	10	-0.9%	0%
CC(=O)Nc1ccc(Oc2nc(-c3ccccn3)nc3ccccc23)cc1	-11%	-8	3.3%	-34%
c1cnc2c(SCc3ccc(-c4nnco4)cc3)cccc2c1	-10%	2	-6.1%	-65%
CC1Cc2ccccc2N1S(=O)(=O)c1cccc(C(=O)OCC(=O)NC2CCS(=O)(=O)C2)c1 (centres undefined)	1%	-4	-1.7%	-1%
O=C(COC(=O)c1ccc(C(F)(F)F)cc1)Nc1cccc(S(=O)(=O)NC2=NCCCCC2)c1	3%	/	5.7%	/
COc1nc2ccccc2cc1-c1noc(-c2cccnc2)n1	/	2	/	-7%
CC(C)(C)c1nnc(N/N=C/c2ccc(O)cc2)n(N)c1=O	5%	-2	-0.3%	-4%
COc1cccc(CN2CC(C(=O)NCCn3cccn3)CCC2=O)c1 (centres undefined)	-13%	/	-1.1%	2%
Cc1c(C(=O)N2CCN(S(=O)(=O)c3ccccc3F)CC2)oc2c(Cl)cccc12	-4%	/	-2.2%	/
N#Cc1ccncc1Sc1ccc(Cl)cc1	-10%	/	-2.0%	-2%
Cc1nnc(SCc2ccc(Cl)c(Cl)c2)s1	1%	3	5.5%	-44%
CCOC(=O)N1CCN(C(=O)c2ccc3c(=O)n(CCOC)c(=O)[nH]c3c2)CC1	0%	-7	-2.1%	1%
O=[N+]([O-])c1ccc(Oc2ccc(S(=O)(=O)N3CCOCC3)cn2)cc1	45%	/	-2.2%	/
CCn1cnc2c1c(=O)n(CC(=O)NCC(C)C)c(=O)n2Cc1ccccc1	4%	/	1.0%	0%
COc1cccc(N2CCN(c3ccc4nnc(CCC(=O)Nc5ccc(C)cn5)n4n3)CC2)c1	17%	/	0.9%	-2%
CC(C)(C)c1cc(C(=O)NCC(=O)OCC(=O)c2cccc([N+](=O)[O-])c2)cc(C(C)(C)C)c1	-11%	-11	1.3%	-2%
COc1ccc(NS(=O)(=O)c2cn(C)cn2)cc1	18%	-3	-0.7%	-2%
CC(CC(=O)NCCc1ccc(Cl)cc1)S(=O)(=O)c1ccc2c(c1)NC(=O)CO2 (centres undefined)	4%	/	2.3%	15%
Cc1oc2c(CN3CCCC3)c(O)ccc2c(=O)c1-c1ccccc1	10%	16	-0.2%	-12%
Cc1oc2c(c1C(=O)c1ccc(Cl)cc1)C(=O)C(=O)c1ccccc1-2	1%	5	-0.8%	-3%
CC12CCC(C(=O)N3CCN(c4ccccc4)CC3)(CC1=O)C2(C)C (centres undefined)	12%	-6	4.4%	-10%
Cc1ccc(CN2CC(C(=O)Nc3cc(S(C)(=O)=O)ccc3Cl)CC2=O)cc1 (centres undefined)	12%	1	1.8%	0%
O=C(C1=C(O)C(=O)N(c2ncccn2)C1c1ccc(Cl)c(Cl)c1)c1ccco1 (centres undefined)	?	-5	?	-9%

Carrying on:
compound	Rango dissoc inh	GLA inh pH 4.5	Rango complex inh	miR-21 FLuc
CN(Cc1ccccc1)C(=O)c1ccc(NC(=O)Cc2ccc(NC(=O)C3CCCN(C(=O)C4CCCC4)C3)cc2)cc1 (centres undefined)	2%	/	-2.7%	/
CCCn1c2c(c(=N)c3c1CCC3)CCCC2	-1%	2	-1.9%	?
Oc1ccc(N=Nc2cccc(Cl)c2)cc1C=Nc1ccc(N2CCOCC2)cc1	-13%	1	-1.4%	1%
COc1ccccc1CNC(=O)COc1ccccc1OC	1%	1	0.3%	-6%
COc1ccccc1NS(=O)(=O)c1c(C)nc2sccn2c1=O	?	/	4.3%	0%
COCCCNC(=O)C1CCN(S(=O)(=O)c2ccc3nc4c(c(C(=O)O)c3c2)CCCCC4)CC1	-22%	/	1.7%	2%
CCOC(=O)c1cccc(NC(=O)CCOc2ccccc2)c1	19%	-9	1.4%	-5%
CC1CCN(C(=O)COc2ccc(Nc3ccccc3)cc2)CC1	7%	2	2.8%	-6%
Cc1nc2c(C)[n+](CC(=O)c3ccccc3)ccc2n1C	-6%	4	0.5%	3%
O=C(N/N=C/c1ccc[nH]1)c1ccccc1OCc1ccccc1Cl	0%	1	-1.2%	-4%
Cc1cccc(N(Cc2ccccc2)C(=O)CSC(C)C(=O)Nc2cc(C)on2)c1 (centres undefined)	-3%	/	2.7%	/
CCOc1ccc(-c2nc(N)ncc2-c2ccccc2OC)c(O)c1	-8%	3	1.4%	-11%
CCOP(=O)(OCC)/C(=N/OC(=O)c1ccc(Cl)cc1Cl)C(N)=O	15%	1	-1.3%	-11%
Cc1ccc(OCC(=O)N(C)CC(=O)NCc2ccco2)c(Br)c1	-18%	/	-2.0%	/
COc1cc2c(cc1OC)CN(c1ccc(-c3ccccc3OC)nn1)CC2	?	3	?	-10%
COc1ccc(CNCC(=O)Nc2ccccc2-n2cccc2)cc1	-10%	10	1.5%	16%
Cc1cc(N2CCN(C)CC2)nc2ccc(NC(=S)NC3CC3)cc12	8%	8	-2.2%	-7%
COc1ccc(N2C(=O)c3ccccc3C(C)(C)C2=O)cc1	0%	/	0.9%	-4%
COc1cc(CN2CCN(CCCc3ccccc3)CC2CCO)cc(OC)c1 (centres undefined)	4%	/	3.0%	-3%
Cc1ccc(CN2CCCN(C)CC2)c(C)c1	13%	/	-3.2%	2%
O=C(Nc1cccnc1)c1ccccc1NS(=O)(=O)c1ccc(F)cc1	6%	-10	-3.4%	7%
Cc1ccc(C)c(CSc2nc3[nH]ncc3c(=O)[nH]2)c1	4%	2	1.1%	23%
C(=N\N=C\c1ccccn1)/c1ccccn1	-2%	/	-0.8%	-3%
COc1ccccc1NC(=O)c1ccc(NC(=O)COC(=O)C2CCCCC2)cc1	0%	3	0.1%	0%
O=C(N/C(=C\c1ccccc1)C(=O)N1CCOCC1)c1cccc(Br)c1	-15%	/	0.5%	0%

Further compounds follow.
compound	Rango dissoc inh	GLA inh pH 4.5	Rango complex inh	miR-21 FLuc
CCc1nnc(NC(=O)CN2CCOCC2)s1	7%	8	0.4%	2%
CCC(Oc1ccccc1C)C(=O)N1CCCN(C)CC1 (centres undefined)	1%	/	8.1%	-2%
COC(=O)[C@@H](NC(=O)Nc1cccc(OC)c1)C(C)C	-12%	2	-1.4%	-4%
O=C(NC1CCCCC1NC(=O)c1ccco1)c1ccco1 (centres undefined)	-11%	-9	-0.4%	-3%
O=C(Cn1ccc(C(F)(F)F)n1)Nc1ccc(S(=O)(=O)NCc2ccco2)cc1	10%	-18	-6.1%	-1%
Cc1ccc(S(=O)(=O)/N=C2\C=C(NS(=O)(=O)c3ccccc3)C(=O)c3ccccc32)c(C)c1	0%	/	-2.8%	/
CCc1ccc(Oc2coc3cc(OCC(=O)Nc4cc(C)ccc4C)ccc3c2=O)cc1	0%	-2	0.5%	2%
COc1ccc(CCNC(=O)c2ccc(CS(=O)(=O)c3ccc(C)cc3)o2)cc1OC	20%	-5	0.3%	?
CS(=O)(=O)c1ccc2c(c1)SC1=NC(=O)/C(=C/c3ccco3)C(=N)N12	?	-17	?	-17%
COc1ccc2nc(NC(=O)CSc3cn[nH]n3)sc2c1	1%	/	-0.2%	-42%
Fc1ccc2nc(C(F)(F)F)cc(N3CCOCC3)c2c1	-11%	/	-0.2%	-7%
CC(C)c1ccc(NC(=O)N(CCc2nc3ccccc3[nH]2)C2CCCC2)cc1	-14%	-4	1.2%	1%
Cc1onc(-c2ccccc2)c1C(=O)n1cc(Br)cn1	-13%	2	-0.6%	-5%
CC(=O)c1cccc(NC(=O)c2cnccn2)c1	0%	/	-2.1%	-7%
Cc1cc(=O)[nH]c(SCC(=O)N2CCCCCC2)n1	4%	-5	5.4%	-13%
CCCCn1c(N)c(N(CCOC)C(=O)c2ccc(-c3ccccc3)cc2)c(=O)[nH]c1=O	0%	/	0.3%	/
CN(C)C(=O)c1ccc(-c2cc(C(F)(F)F)n(C)n2)s1	-1%	-2	0.0%	-5%
Cc1ccc(C2(c3ccc(C)cc3)NC(=O)N(CC(N)=O)C2=O)cc1	0%	/	-0.8%	-7%
CCOC(=O)c1c(C)n(CC)c2ccc(OC(=O)c3ccc([N+](=O)[O-])cc3)cc12	2%	3	0.5%	-8%
COc1ccc(C(=O)Nc2cnc(NC(=O)c3cccs3)cc2C)cc1	12%	/	-0.9%	-31%
O=C(N/N=C/c1cccc2ccccc12)c1cc2ccccc2o1	5%	/	0.7%	8%
O=S(=O)(c1ccc(Br)cc1)N1CCCN(Cc2ccccc2F)CC1	2%	-9	-1.3%	-11%
CCOC(=O)C(c1ccccc1)N1CCN(c2ccc(OC)cc2)CC1 (centres undefined)	20%	4	-1.0%	-6%
Cc1cc(C(=O)N2CCN(c3ccc([N+](=O)[O-])cc3)CC2)co1	-5%	/	3.1%	9%
COc1ccc(C(=O)Nc2nc(-c3ccc(S(=O)(=O)N4CCOCC4)cc3)cs2)cc1	-15%	-21	-0.9%	?

Remaining list, next part
compound	Rango dissoc inh	GLA inh pH 4.5	Rango complex inh	miR-21 FLuc
O=C(Nc1nccs1)C1(S(=O)(=O)c2ccc(Cl)cc2)CC1	1%	-3	-1.3%	-3%
O=C(NCc1ccc(C(=O)O)cc1)OCc1ccccc1	2%	-7	4.4%	-4%
Cc1nonc1-c1ccc2c(c1)OCO2	41%	-14	-0.8%	-7%
Nc1ncnc2c1nc(Sc1ccc(Cl)cc1)n2[C@@H]1O[C@@H]2COP(=O)(O)O[C@H]2[C@H]1O	-18%	/	5.1%	/
Cc1[nH]n(C(N)=S)c(=O)c1N=Nc1cc(C(F)(F)F)ccc1Cl	3%	/	8.1%	-1%
O=C(Nc1cccc(C(=O)O)c1)/C(=C\c1ccc(F)cc1)NC(=O)c1ccco1	-12%	/	0.9%	-4%
O=C(Cn1cnc2ccccc21)Nc1ccc(F)c(F)c1	31%	-4	2.1%	3%
Cc1ccccc1-n1nnnc1SCc1cc(=O)n2ccsc2n1	5%	2	-1.5%	4%
COc1ccccc1CNC(=O)C(CC(C)C)NC(=O)C1CCC(C)CC1 (centres undefined)	-8%	-15	0.4%	-2%
O=C(Cn1nc(-c2ccc(Cl)cc2)ccc1=O)NCc1ccc2c(c1)OCO2	-5%	3	1.4%	2%
CC(C)=CCC/C(C)=C/CNC(=O)C[C@H]1C[C@H](C(=O)N2CCOCC2)[C@@]2(CCC3CCCC3)c3[nH]c4cc(CCC(=O)N(C)C)ccc4c3CCN2C1=O	?	/	-0.1%	/

5 entries out of the list above, ordered by the number in GLA inh pH 4.5, lowest first.
compound	Rango dissoc inh	GLA inh pH 4.5	Rango complex inh	miR-21 FLuc
COc1ccccc1CNC(=O)C(CC(C)C)NC(=O)C1CCC(C)CC1 (centres undefined)	-8%	-15	0.4%	-2%
Cc1nonc1-c1ccc2c(c1)OCO2	41%	-14	-0.8%	-7%
O=C(NCc1ccc(C(=O)O)cc1)OCc1ccccc1	2%	-7	4.4%	-4%
O=C(Nc1nccs1)C1(S(=O)(=O)c2ccc(Cl)cc2)CC1	1%	-3	-1.3%	-3%
O=C(Cn1nc(-c2ccc(Cl)cc2)ccc1=O)NCc1ccc2c(c1)OCO2	-5%	3	1.4%	2%

Profiles, looked up by structure.
`O=C(NCc1ccc(C(=O)O)cc1)OCc1ccccc1` as listed: Rango dissoc inh: 2%; GLA inh pH 4.5: -7; Rango complex inh: 4.4%; miR-21 FLuc: -4%
`CC(C)=CCC/C(C)=C/CNC(=O)C[C@H]1C[C@H](C(=O)N2CCOCC2)[C@@]2(CCC3CCCC3)c3[nH]c4cc(CCC(=O)N(C)C)ccc4c3CCN2C1=O` as listed: Rango dissoc inh: ?; GLA inh pH 4.5: /; Rango complex inh: -0.1%; miR-21 FLuc: /

Screening data as filed in PubChem BioAssay.
